Compound activity (PubChem)
NS1 inh: influenza NS1 inhibition; Potency, µM (series often up to 46.1 µM), inactives show at the highest dose activity, positive = more growth; S. cerevisiae slowed by influenza A NS1, growth recovery by OD600; 0.4% of 270,000 active; active means well fitted rising curve with a large enough effect; inconclusive means small, poorly fitted or top-dose-only effect; inactive means no such curve, though single readings can be large or run the other way; further: nearly all actives have a fitted effect of over 50% in size
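Growth recovery, yeast-based: influenza A NS1 expressed in S. cerevisiae causes slow growth, and suppressors are detected by OD600. The parent strain without NS1 is used as positive control.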
MARV entry inh: inhibitors of Marburg virus binding or cell entry; AID 540276; Potency, µM (doses to about 37.8 µM), for the others: at the highest dose activity change, negative = inhibition, actives largely listed as inhibitors; Marburg virus pseudotyped entry inhibition, cell reporter; control for the full effect not named in the record; about a third of the inactives were read at about 46 µM; 1.8% of 300,000 active; active = well fitted inhibition curve with a large enough effect; inconclusive = small, poorly fitted or top-dose-only effect, or effect the other way; inactive = flat fitted curve, though single readings scatter; tested in HEK293 cells; about a fifth of its hits are not listed in these tables; further: on the % scale 0 is the no-effect control and ±100 the full control effect; luciferase read-out
SARS PLpro yeast: SARS-CoV PLP inhibition in yeast; S. cerevisiae expressing SARS-CoV PLpro, growth rescue; control for the full effect not named in the record; Potency, µM (doses to about 32.9 µM), without a hit: top-dose activity, positive = growth rescue; 0.19% of 330,000 active; AID 485353; active means well fitted rising curve with a large enough effect; inconclusive means small, poorly fitted or top-dose-only effect; inactive means no such curve, though single readings can be large or run the other way; further: 0% is about no effect; nearly all actives have a fitted effect of over 55% in size; growth read by luminescence after 48 h
Lassa entry inh: inhibitors of Lassa virus binding or cell entry | 1.2% of 300,000 active | Potency, µM (highest dose often 37.9 µM), for inactives: at the highest dose activity change, negative = inhibition, most hits filed as inhibitors | Lassa virus pseudotype entry inhibition, cell reporter; control for the full effect not named in the record; active means well fitted inhibition curve with a large enough effect; inconclusive means small, poorly fitted or top-dose-only effect, or effect the other way; inactive means flat fitted curve, though single readings scatter; tested in HEK293 cells; further: on the % scale 0 is the no-effect control and ±100 the full control effect; nearly all actives have a fitted effect of over 50% in size; luciferase read-out
RE007 growth inh: less growth of the S. pombe RE007 Vpr strain; S. pombe RE007 Vpr strain, BacTiter-Glo ATP luminescence, 24 h; control for the full effect not named in the record; Potency, µM (doses to about 92.2 µM), inactives show at the highest dose activity change, negative = less growth; 0.21% of 360,000 active; AID 651644; active = well fitted falling curve with a large enough effect; inconclusive = small, poorly fitted or top-dose-only effect; inactive = no such curve, though single readings can be large or run the other way;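 further: on the % scale 0 is the no-effect control and ±100 the full control effect; nearly all actives have a fitted effect of over 50% in size; the assay follows cell death caused by Vpr and the record does not say whether a fall means rescue or toxicity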
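Fission yeast strain RE007, carrying one chromosomally integrated HIV-1 vpr copy, was seeded at OD 0.01 in PMG+AL medium with 23 nL pinned compound. After 24 h at 30 °C and 99% humidity, viability was read by BacTiter-Glo luminescence.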
Cruzain inh Det: cruzain (T. cruzi) inhibition with detergent; P25779; purified cruzain, Z-FR-AMC fluorescence, 0.01% Triton; Potency, µM, for the others: max response, negative = inhibition, usual class: inhibitors; 0.43% of 200,000 active; AID 1478;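 further: plate controls were neutral wells for no effect and buffer without enzyme for full effect; nearly all actives have a fitted effect of over 40% in size; top concentration of the series not given in the record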
Target sequence (P25779 123-467 limits assumed): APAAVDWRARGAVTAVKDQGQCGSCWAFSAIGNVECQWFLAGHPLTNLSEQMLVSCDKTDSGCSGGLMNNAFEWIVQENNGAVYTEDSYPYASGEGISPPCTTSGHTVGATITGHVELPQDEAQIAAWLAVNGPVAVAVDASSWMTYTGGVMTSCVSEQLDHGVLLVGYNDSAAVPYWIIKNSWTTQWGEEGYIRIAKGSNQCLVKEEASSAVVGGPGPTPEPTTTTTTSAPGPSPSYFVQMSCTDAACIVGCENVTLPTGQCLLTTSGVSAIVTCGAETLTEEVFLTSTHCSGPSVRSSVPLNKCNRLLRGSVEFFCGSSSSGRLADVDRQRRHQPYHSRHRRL
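Enzyme 1.5 nM, Z-FR-AMC 2 uM, NaOAc 100 mM pH 5.5, DTT 5 mM, Triton X-100 0.01%; 15 min RT compound preincubation; kinetic ex360/em450, 60 s delta.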
Cruzain noTriton: cruzain (T. cruzi) inhibition without detergent; Potency, µM, without a hit: max response, negative = inhibition, usual class: inhibitors; purified cruzain, Z-FR-AMC fluorescence, no detergent; 2.3% of 200,000 active; P25779;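 further: plate controls were enzyme without inhibitor for no effect and buffer without enzyme for full effect; nearly all actives have a fitted effect of over 40% in size; top concentration of the series not given in the record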
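Detergent-free condition (0.00005% Triton X-100) in acetate buffer pH 5.5 with DTT. 1.5 nM enzyme and compound were pre-mixed 15 min, then 2 uM Z-FR-AMC substrate added; reaction progress from fluorescence change between first and third reads (60 s).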
2A StopGo: lowers the luciferase signal of an FMDV 2A StopGo reporter | human cells with a luciferase reporter of 2A StopGo recoding; control for the full effect not named in the record | Potency, µM (top dose mostly 57.9 µM), without a hit: at the highest dose signal change, negative = less light | 1.2% of 410,000 active; active = well fitted falling curve with a large enough effect; inconclusive = small, poorly fitted or top-dose-only effect; inactive = no such curve, though single readings can be large or run the other way; tested in HEK293T cells; further: on the % scale 0 is the no-effect control and ±100 the full control effect; nearly all actives have a fitted effect of over 45% in size; luciferase light after 4 h
Numbers without * were called inactive; ? = inconclusive; nt = no result given; & = joins results of further samples; [ ] = remark or other dose. Unless noted, the call rests on the fitted dose curve; in most records, active means well fitted curve in the direction sought with a large enough effect; inconclusive means small, poorly fitted or top-dose-only effect, or another doubt; inactive means no such curve, though single readings can be large; an effect the other way counts as inactive or inconclusive. Potency means the concentration at half of the fitted maximal effect.

compound | MARV entry inh | Cruzain noTriton | Cruzain inh Det | NS1 inh | Lassa entry inh | SARS PLpro yeast | 2A StopGo | RE007 growth inh
COc1ccc(/C=N/NC(=O)CCn2c3ccccc3c3ccccc32)cc1OC | -2% | ? | -8.4% | 20% | -5% | -3% | ? | -1%
CC(C(=O)N1CCc2ccccc21)N1CCc2ccccc2C1 (stereo not given) | -9% | -20% | -4.3% | 0% | -7% | -5% | -29% | -22%
COc1ccc(N2CCN(C(=O)c3cn(CC4CCCCC4)nn3)CC2)cc1 | ? | nt | nt | -19% | -13%[46.1 µM] | 4% | -3% | 4%
CCOc1cc(-c2nc3n(c(=O)c2C#N)CCS3)ccc1O | nt | nt | nt | 5% | nt | 2% | -17% | 5%
O=C(O)Cc1sc(Nc2cccc3ccccc23)nc1-c1ccc(Cl)cc1 | 4% | nt | nt | 5% | ? | -2% | -6% | 26%
CN(C)C(=O)Oc1ccc(-c2nnco2)cc1 | nt | -11% | 0.1% | 2% | nt | -1% | -8% | 3%
Cc1ccccc1Cn1c(CN2CCC(C(=O)NCc3ccc(Cl)cc3)CC2)cc2ccccc21 | nt | ? | -2.1% | nt | 18%[46.1 µM] | nt | -22% | nt
O=C(N/N=C/c1sc(=O)n(-c2ccccc2)c1Cl)c1ccccc1 | 0% | -17% | -5.5% | 15% | 8% | -11% | 22% | -11%
Cc1ccc(S(=O)(=O)CCC(=O)N2CCN(c3ccc(Cl)cc3)CC2)cc1 | -12% | 29% | -0.4% | 3% | -27% | 2% | ? | -4%
CCOC(=O)c1ccc(NC(=O)CCCn2nc(C)c3sc4ccccc4c3c2=O)cc1 | 2%[46.1 µM] | ? | -11% | nt | 21%[46.1 µM] | nt | -12% | nt
COCCN(C(=O)CSc1nc2ccc(C)cc2[nH]1)c1c(N)n(Cc2ccccc2)c(=O)[nH]c1=O | 0%[46.1 µM] | nt | nt | nt | -4%[46.1 µM] | 0% | 6% | 4%
CC(C)C(=O)NC(=S)Nc1c(Cl)ccc2nsnc12 | 8%[46.1 µM] | nt | nt | 1% | 8% | 5% | -7% | -16%
O=C(NCCN1CCOCC1)c1ccc(Cl)c([N+](=O)[O-])c1 | -3%[46.1 µM] | nt | nt | 0% | 11%[46.1 µM] | -5% | 16% | -23%
CN(C(=O)C1CCOC1)c1nnc(-c2ccncc2)s1 (stereo not given) | ? | -8% | -1.6% | -1% | 18% | -2% | 27% | -10%
NC(=O)c1cc[n+](CC2=C(C(=O)O)N3C(=O)[C@@H](NC(=O)[C@@H](c4ccccc4)S(=O)(=O)[O-])[C@H]3SC2)cc1 | -11%&-5%&-5% | 6% | -4.0% | -12% | ? | nt | nt | nt
N#Cc1cn(CC(=O)NCC2CCCO2)c2ccccc12 (stereo not given) | 11% | -1% | 3.5% | 4% | 8% | 0% | -1% | 10%
OCCC1CN(Cc2nc3ccccc3[nH]2)CCN1C1CCCC1 (stereo not given) | -13%[46.1 µM] | nt | nt | 0% | 7%[46.1 µM] | 1% | 24% | 2%
COc1ccc(OC)c(NC(=O)Cn2cnc3onc(-c4ccc(Cl)cc4)c3c2=O)c1 | nt | 5% | 9.9% | nt | 15%[46.1 µM] | nt | ? | nt
Cc1cc2cc(CNC(=O)c3cc4ccccc4o3)ccc2n1C | -3% | 25µM* | -3.7% | 12% | nt | -14% | nt | nt
Cc1ccc(Nc2ncnc3c2cnn3C)c(C)c1 | -20% | nt | nt | -11% | ? | 3% | -22% | 3%
Cc1ccc(C(=O)CCNc2ccccc2)o1 | -1% | 6% | -1.7% | -48% | 6% | nt | 43%[activator] | 11µM*
CC(=O)Nc1nonc1-c1nnc(SCC(=O)Nc2cc(C)cc(C)c2)n1C | ? | -5% | -0.5% | nt | 7%[46.1 µM] | nt | -1% | nt
CS(=O)(=O)Nc1ccc(C(=O)Nc2ccccc2Sc2ccccc2)cc1 | -1% | 0% | -7.7% | 13% | 2% | 18% | -20% | -7%
Cc1ccc(NC(=O)CC2COc3ccccc3O2)cc1 (stereo not given) | 28% | -3% | -6.1% | -30% | -3% | 3% | 43%[activator] | -18%
Cc1ccc(OCC(=O)Nc2ccc([N+](=O)[O-])cn2)cc1C | 8% | nt | nt | nt | 2% | nt | 30% | 10%
CCOc1ccc(CN2CCN(Cc3ccc(C)o3)CC2CCO)cc1 (stereo not given) | nt | nt | nt | 6% | nt | -1% | 3% | 2%
CCN(CC)c1ccc(N=Cc2ccc(N(CC)CC)cc2O)cc1 | -8% | -1% | -5.4% | -1% | nt | -2% | -13% | -12%
CC(C(=O)NCC1CCCCC1)N(C)Cc1ccc(Br)cc1 (stereo not given) | ? | nt | nt | -10% | 2% | -12% | ? | -26%
COc1ccc(C(=O)OCC(=O)c2ccc(F)cc2)cc1OC | 11% | nt | nt | nt | -11% | -2% | 17% | 5%
Cc1c(C(=O)N2CCC[C@H]2C(N)=O)oc2c(F)cccc12 | nt | nt | nt | 6% | nt | -1% | 45%[activator] | -15%
CCOc1ccc(S(=O)(=O)NCc2ccc(OC)cc2)c2cccnc12 | ? | 4% | -1.4% | -1% | -6% | -4% | 9% | -7%
COc1cc(SC)ccc1C(=O)NCC1CCCCC1 | 1%[46.1 µM] | nt | nt | -28% | -19% | -13% | 25% | -25%
c1ccc2sc(NC3=NCN(Cc4ccc5c(c4)OCO5)CN3)nc2c1 | -28% | ? | ? | -3% | 27% | 2% | -1% | -5%
CCC(C)NC(=O)C1CCCN(C(=O)Nc2ccc(F)cc2)C1 (stereo not given) | 27% | 9% | 3.9% | -8% | 1% | -5% | -14% | 0%
COc1ccc(S(=O)(=O)Nc2ccccc2C(N)=O)cc1OC | ? | nt | nt | nt | -18% | 3% | 6% | 40%
Cc1ccc(OCCSc2nc3ccccc3n2CC(=O)N2CCOCC2)cc1C | -22%[46.1 µM] | 15% | -1.5% | nt | 26%[46.1 µM] | nt | 0% | nt
N#Cc1ccccc1S(=O)(=O)N1CCN(CC(=O)Nc2ccnn2C2CCCC2)CC1 | 2% | nt | nt | nt | 7% | -3% | -25% | 3%
C/C(=N\NC(=O)C1COc2ccccc2O1)c1ccc(N2CCOCC2)cc1 (stereo not given) | 1% | nt | nt | nt | ? | 3% | -11% | -8%
CCc1ccc(OCCCC(=O)Nc2cccc(C(=O)O)c2)cc1 | 1% | nt | nt | 0% | 10% | -1% | 15% | -5%
CCc1nc(C)cn1S(=O)(=O)c1cc(C)c(OC)cc1C | nt | -5% | 3.5% | -38% | nt | 2% | -9% | 7%
CCC(=O)Nc1ccc(C(=O)N/N=C/c2c(C)[nH]c3ccccc23)cc1 | -10%[14.2 µM] | nt | nt | 3% | -10% | -1% | 8% | -13%
Cc1cccc(-c2nc(SCCCOc3ccc(Cl)c(C)c3)n3[nH]c(=O)cc3n2)c1 | nt | -9% | 3.5% | nt | -2%[46.1 µM] | nt | 13% | nt
CC(=O)NN1C(=O)c2ccccc2NC1c1ccccc1F (stereo not given) | nt | nt | nt | 1% | nt | -1% | -13% | 11%
COc1ccc(/C=C/C(=O)N/C(=C\c2ccco2)C(=O)NCCc2nc3ccccc3[nH]2)cc1 | -22% | -23% | ? | 5% | 2% | 10% | 15% | -6%
COc1ccc(C(=O)N2CCCC(CCC(=O)N3CCN(c4ccccn4)CC3)C2)cc1 (stereo not given) | 4% | nt | nt | -11% | ? | -2% | ? | -12%
O=C(CN1C(=O)COc2ccc(S(=O)(=O)N3CCCC3)cc21)NC1CC1 | nt | nt | nt | 3% | nt | 2% | -4% | 2%
O=C(CS(=O)(=O)c1ccc(Cl)c(Cl)c1)Nc1ccccc1Cl | -24% | -9% | -6.2% | 16% | ? | -3% | 4% | -6%
C(=N\n1cnnc1)/c1cccc2ccccc12 | -12%[46.1 µM] | -27% | -6.0% | -41% | -7% | -2% | 12% | 11%
CCOC(=O)c1c(/N=C/c2c(O)n(-c3ccc(F)cc3)c(=S)[nH]c2=O)sc2c1CCCC2 | ? | -11% | -5.8% | 3% | 5% | -4% | -9% | -10%
C=CCNc1nc2ccccc2nc1NS(=O)(=O)c1cccc(C)c1 | nt | nt | nt | -35% | nt | -5% | 25% | -10%
c1ccc(Cc2noc(CN3CCN(C4CCc5ccccc5C4)CC3)n2)cc1 (stereo not given) | ? | nt | nt | 4% | -26% | -1% | ? | 14%
O=C(CCl)N1CCN(C(=O)C2COc3ccccc3O2)CC1 (stereo not given) | ? | nt | nt | nt | ? | 4% | ? | -1%
CCOC(=O)c1ccc(NC(=S)NCc2cccnc2)cc1 | ? | nt | nt | -1% | -16%[46.1 µM] | 0% | 8% | 6%
O=C(NCc1ccc(Cl)cc1)C(=O)N/N=C/c1ccc(Br)cc1 | ? | nt | nt | nt | -18% | 1% | 29% | 26%
Cc1cccc(C)c1N1CCN(S(=O)(=O)N2CCCCC2)CC1 | 0%[46.1 µM] | nt | nt | -7% | ? | -2% | -16% | 23%
COc1ccc(C(=O)N/N=C(\C)CC(=O)Nc2ccc(Cl)cn2)cc1 | 20%[46.1 µM] | nt | nt | -9% | ? | 1% | 6% | -8%

Going on with the list:
compound | MARV entry inh | Cruzain noTriton | Cruzain inh Det | NS1 inh | Lassa entry inh | SARS PLpro yeast | 2A StopGo | RE007 growth inh
OCc1cn(-c2ccccc2)nc1-c1ccc2c(c1)OCCO2 | ? | 12% | -2.4% | -59% | ? | -18% | -19% | -11%
Cc1ccc(-n2cnc3sc(C)c(C)c3c2=O)cc1 | ? | nt | nt | 2% | 0%[46.1 µM] | 0% | 16% | -2%
C#CC(CC)(CC)NC(=O)NC1CCCCC1 | 2% | nt | nt | 6% | -6% | -1% | -3% | -20%
CCN(CC)S(=O)(=O)c1ccc(Cl)c(C(=O)NCc2ccccc2Cl)c1 | -8% | 4% | -9.0% | -2% | -20% | 4% | -18% | -23%
CC(C)N(Cc1ccccc1)C(=O)CN1C(=O)c2ccccc2C1=O | nt | nt | nt | 3% | nt | ? | -16% | -12%
Cc1cccc2c1cnn2C(=O)Nc1ccccc1Br | ? | nt | nt | 0% | ? | 1% | 64%[activator] | -3%
